# VDR inh: inhibitors of human vitamin D receptor | VDR-SRC2-3 peptide fluorescence polarization, 2 h | actives 0.93% (n = 400,000) | Potency, µM, inactives show max response, negative = inhibition, usual class: inhibitors; active = well fitted inhibition curve with a large enough effect; inconclusive = small, poorly fitted or top-dose-only effect, or another doubt; inactive = no such curve, though single readings can be large or run the other way; also: series mostly up to about 120 µM
# Target sequence (P11473 whole entry, looked up): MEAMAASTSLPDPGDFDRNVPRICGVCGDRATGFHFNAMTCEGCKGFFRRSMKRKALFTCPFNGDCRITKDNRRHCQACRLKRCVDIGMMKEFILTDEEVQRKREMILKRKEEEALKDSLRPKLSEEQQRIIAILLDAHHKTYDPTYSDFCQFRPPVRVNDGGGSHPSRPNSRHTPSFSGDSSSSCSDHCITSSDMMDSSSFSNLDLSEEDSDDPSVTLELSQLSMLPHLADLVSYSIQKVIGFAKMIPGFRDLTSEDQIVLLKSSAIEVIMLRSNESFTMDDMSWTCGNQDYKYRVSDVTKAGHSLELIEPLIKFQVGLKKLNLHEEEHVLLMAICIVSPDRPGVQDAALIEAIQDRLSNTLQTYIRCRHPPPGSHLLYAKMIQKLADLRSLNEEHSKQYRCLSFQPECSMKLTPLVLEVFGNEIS
#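 Two reagent solutions held at 4 deg C in the dark were dispensed, compounds pinned at 23 nl, and the mixture incubated 2 h at room temperature. Read-out: fluorescence polarization of VDR–SRC2-3 peptide binding.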
# Starred values were filed as active, the others as inactive; ? = inconclusive; & = joins results of further samples; [ ] = another dose, or the depositor's remark. % is scaled to controls: 0 for no effect and ±100 for the full control effect; potency is read from the fitted curve at half-maximal effect. These rows are one share of the data (hit frequency here may not be typical).
SMILES,VDR inh
CN1N=C(c2ccc(Cl)cc2)CC(c2ccc(Cl)cc2)C1=O (centres undefined),-16.6%
CCOc1ccccc1C1CC(=O)NC2=C1C(=O)CCC2 (centres undefined),-4.3%
COC(=O)CSc1nnc(CNC(=O)Cc2ccccc2)n1-c1ccccc1OC,-21.1%
COc1ccccc1C(=O)Oc1c(Sc2ccccc2)c(C)nn1C(C)(C)C,-20.0%
N/C(=N\OC(=O)C1CCCCC1)c1cccc([N+](=O)[O-])c1,-2.1%
CCOC(=O)CNC(=S)N(Cc1ccccc1)Cc1ccccc1F,-14.3%
O=C(Cc1ccsc1)OCC(=O)c1ccccc1,-17.3%
Cc1ccc(NC(=O)C2CCCN(S(=O)(=O)c3c(C)noc3/C=C/N(C)C)C2)c(C)c1 (centres undefined),-7.5%
COc1ccc2cc(-c3ccn[nH]3)ccc2c1,2.7%
O=S(=O)(NCc1ccco1)c1ccc(S(=O)(=O)N2CCCC2)cc1,-10.1%
CC1(C)Cc2c(c(=S)nc(-c3ccccc3)n2CCO)CO1,0.6%
CC(CNC(=O)CN1C(=O)COc2ccc(S(=O)(=O)N3CCCCCC3)cc21)c1ccccc1 (centres undefined),-1.9%
FC(F)(F)c1ccccc1CNCc1ccc2c(c1)OCO2,0.7%
COC(=O)[C@@]1(C)[C@H]2C(=O)N(C)C(=O)[C@H]2[C@H]2CN=C(SCC(=O)c3ccccc3)N21,31.6µM*
O=C(OCC(=O)N1CCCCC1)c1ccc2c(c1)C(=O)N(Cc1ccco1)C2=O,-17.3%
Oc1cc(O)cc(O)c1,-6.2%
O=C(CN1CCN(Cc2cccc(Cl)c2)C1=O)NCc1cccs1,-8.5%
CC(C)C(=O)c1cn(CC(=O)O)c2ccccc12,-13.5%
CC(C)Cc1ccc(C(=O)Nc2ccc(Cc3ccncc3)cc2)o1,-13.8%
Cn1c(N)c(C(=O)COC(=O)c2ccccn2)c(=O)n(C)c1=O,30.4%[activator]
C#CCOCCOCCOCCNc1nc(N2CCN(C(=O)Cn3cc(CCCCN)nn3)CC2)nc(N2CCN(C(=O)[C@H](C)n3cc(CCC(=O)O)nn3)CC2)n1,14.1%
O=C(N/N=C\c1cccc(F)c1)c1ccc(Cn2cc(Br)c([N+](=O)[O-])n2)o1,-6.7%
COC(=O)c1ccc(C)c(NC(=O)CCCN2C(=O)NC(C)(C)C2=O)c1,-18.0%
O=C(CSc1nnc(-c2ccc(Cl)cc2)n1-c1ccc(Cl)cc1)N/N=C/c1ccccc1C(=O)O,8.1%
Cc1cccc(OCCOCCN2CCOCC2)c1C,-1.1%

# At a glance, part of the list above:
SMILES,VDR inh
CN1N=C(c2ccc(Cl)cc2)CC(c2ccc(Cl)cc2)C1=O (centres undefined),-16.6%
CCOc1ccccc1C1CC(=O)NC2=C1C(=O)CCC2 (centres undefined),-4.3%
COC(=O)CSc1nnc(CNC(=O)Cc2ccccc2)n1-c1ccccc1OC,-21.1%

# The listing picks up; the 2 compounds before the break are reprinted first.
SMILES,VDR inh
O=C(CSc1nnc(-c2ccc(Cl)cc2)n1-c1ccc(Cl)cc1)N/N=C/c1ccccc1C(=O)O,8.1%
Cc1cccc(OCCOCCN2CCOCC2)c1C,-1.1%
CC(C)Oc1ccc(C2CC(=O)N(c3cccc(Br)c3)C2=O)cc1 (centres undefined),?
C=CCC[C@@H](Cc1ccc(F)cc1)C(=O)OC[C@H](Cc1c[nH]c2ccccc12)NC(=O)[C@@H](CC=C)CC(=O)NCCO,4.0%
CC(Sc1ncnc2sccc12)C(=O)Nc1ccc(S(=O)(=O)N2CCOCC2)cc1 (centres undefined),-0.9%
S=c1[nH]nc(-c2cccnc2)n1/N=C/c1ccccc1,3.6%
CCc1cccc(NC(=O)Nc2cn(C)c(=O)c3ccccc23)c1,5.3%
O=C(Nc1ccccc1)OCc1cncs1,3.9%
Cc1c(C(=O)NCc2ccccc2)oc2ccc(S(=O)(=O)N3CCC4(CC3)OCCO4)cc12,2.7%
N#Cc1ccccc1Cn1c(=O)oc2ccccc21,-19.8%
Cc1cc(C)cc(NC(=O)N2CCC(NC(=O)c3ccccc3C)CC2)c1,9.7%
COc1cccc(N2CCN(C(=O)C3CCCN(S(=O)(=O)c4ccc(Br)s4)C3)CC2)c1 (centres undefined),-3.7%
O=C(O)C1C(C(=O)Nc2ccc(Cl)cc2)C2C=CC1C21CC1 (centres undefined),-8.1%
Cc1ccc(Cl)cc1NC(=O)c1ccc(NC(=O)N2CCSc3ncccc32)cc1,2.5%
O=S(=O)(c1ccc(NC(=S)N2CCN(c3ccc(O)cc3)CC2)cc1)N1CCOCC1,0.2%
O=C(NCC(c1cccnc1)N1CCN(c2ccc(F)cc2)CC1)c1ccco1 (centres undefined),-5.0%
COc1cc(C(O)c2nc3ccccc3n2C)cc(OC)c1OC (centres undefined),-1.3%
Cc1ccc(S(=O)(=O)N2CCOCC2)cc1C(=O)OCC(=O)NCCc1ccc(F)cc1,3.9%
Cc1ccc(S(=O)(=O)NC(CC(C)C)C(=O)Nc2ccncc2)cc1 (centres undefined),5.1%
Cc1occc1C(=O)N1CCCc2ccccc21,-10.5%
O=Nc1c(-c2c(O)[nH]c3ccccc23)[nH]c2ccccc12,-8.4%
Cc1c(Cl)cnc(NC(=O)COC(=O)CCC(=O)c2cccs2)c1Cl,-13.3%
OCC1(Cc2ccccc2)CCN(Cc2cccc(F)c2F)CC1,-6.7%
Cc1ccc2nc(NCCC(=O)O)nc(-c3ccccc3)c2c1,1.1%
COCCCn1c(SCc2ccccc2F)nc2c(sc3ccccc32)c1=O,20.0%
COc1ccc(CN/C(C)=C(/C#N)C(N)=O)cc1OC,?
O=C(O)[C@@H]1CCCN1S(=O)(=O)c1cccc(S(=O)(=O)N2CCC[C@H]2C(=O)O)c1,-13.2%

# 2 entries drawn at random from those above:
SMILES,VDR inh
COc1cc(C(O)c2nc3ccccc3n2C)cc(OC)c1OC (centres undefined),-1.3%
O=Nc1c(-c2c(O)[nH]c3ccccc23)[nH]c2ccccc12,-8.4%

# The results go on:
SMILES,VDR inh
Cc1ccc(NC(=O)COC(=O)CN2C(=O)NC3(CCCC3)C2=O)cc1S(=O)(=O)N(C)C,10.7%
C=CCSC(=S)Nc1c(C)n(C)n(-c2ccccc2)c1=O,-16.6%
O=C(CCSCCC(=O)NCc1ccc(F)cc1)NCc1ccc(F)cc1,-14.7%
CCOc1ccc(-c2cc(CCCC(=O)NCCc3cc(OC)c(OC)c(OC)c3)no2)cc1,4.9%
COc1cc(NS(=O)(=O)c2ccc(NC(=O)c3ccc(Cl)cc3Cl)cc2)ncn1,-9.2%
CCC(C)Cn1cnc2c(Sc3c([N+](=O)[O-])ncn3C)nc(N)nc21 (centres undefined),-3.4%
CCCC(NC(=O)Cc1c(C)c2cc3c(C)c(C)oc3c(C)c2oc1=O)C(=O)N[C@@H](Cc1ccccc1)C(=O)O (some centres undefined),-5.1%
Cc1ccc(C(=O)C(C)OC(=O)c2ccccc2[N+](=O)[O-])cc1 (centres undefined),-8.7%
CC1c2ccccc2CN1CC1=NCCN1 (centres undefined),-4.5%
CC[C@@]12CCCN3CCc4c(n(c5ccccc45)C(=O)C1)[C@H]32,-2.4%
O=C1CCN(Cc2ccccc2)CCN1CCOc1ccccc1,-6.2%
CCOC(=O)c1cnc(-c2ccccc2)nc1N(C)C,10.7%
NC(CC(=O)O)c1cccc(OCc2ccccc2)c1 (centres undefined),-6.8%
O=C(COC(=O)c1ccco1)NCc1ccc2c(c1)OCO2,-0.7%
O=C(Nc1cccc(-c2ccc(N3CCOCC3)nn2)c1)c1ccc([N+](=O)[O-])cc1,-10.2%
Cc1cc(C)c(Cn2ncn(-c3ccc(Br)cc3)c2=O)c(C)c1,9.2%
CN(C)c1ccc(C(=O)OCC(=O)N2CCCCCC2)cc1,17.8%
Cc1ccc(C(=O)CSc2nc(-c3ccccc3)ccc2C#N)cc1,-2.0%
CCOc1ccc(OCCC(=O)OCC(=O)NC2CCCCC2)cc1,-2.2%
O=c1[nH]c(/C=C/c2ccccc2OC(F)F)nc2c1cnn2-c1ccccc1,6.5%
COc1ccc(/C=C/C(=O)c2ccc(C)c([N+](=O)[O-])c2)cc1O,35.5µM*
CC(NS(=O)(=O)c1ccc(OCC(=O)N2CCCC2)cc1)c1ccccc1 (centres undefined),13.8%
COc1ccc(CCNC(=O)CSc2nc3c(c(=O)n(C)c(=O)n3C)n2C)cc1OC,-2.7%
CCN1CCN(CC(=O)N/N=C/c2cc(Br)cs2)CC1,-15.9%
O=C(c1ccccc1)c1cc2ccccc2oc1=O,19.0%

# Arranged by SMILES length (smallest number first): some entries from above
SMILES,VDR inh
O=C(c1ccccc1)c1cc2ccccc2oc1=O,19.0%
CCN1CCN(CC(=O)N/N=C/c2cc(Br)cs2)CC1,-15.9%
Cc1ccc(C(=O)C(C)OC(=O)c2ccccc2[N+](=O)[O-])cc1 (centres undefined),-8.7%
CCOc1ccc(-c2cc(CCCC(=O)NCCc3cc(OC)c(OC)c(OC)c3)no2)cc1,4.9%

# More compounds follow.
SMILES,VDR inh
Cc1cc(NC(=O)CCC(=O)N(c2ccccc2)C(C(=O)NCC2CCCO2)c2cccnc2)no1 (centres undefined),-13.5%
CSc1ccc(CNC(=O)C2Cc3cc(S(=O)(=O)N4CCCC4)ccc3N2C(C)=O)cc1 (centres undefined),20.1%
CC1(OC(=O)CCc2ccccc2)C(=O)C=C2C=C(c3ccc(C#N)cc3)N(C(CO)CO)C=C2C1=O (centres undefined),3.1%
CCc1ccc2[nH]c(=O)c(CN(CCCO)C(=O)NCc3ccccc3)cc2c1,-5.0%
CCN(CC(=O)NC1CCS(=O)(=O)C1)S(=O)(=O)c1ccc(C)c(C)c1 (centres undefined),-12.1%
O=C(c1ccc(Cl)c(Cl)c1)N1CCN(c2ccccn2)CC1,-9.9%
CN(C)c1ccc(N=Cc2nc(-c3ccccc3)oc2OC(=O)c2ccccc2)cc1,-4.0%
CC1(C)CC(=O)C(C=NCCN2CCN(C3CC(=O)N(c4cccc(Br)c4)C3=O)CC2)=C(O)C1 (centres undefined),10.1%
Cn1cc(Cl)c(C(=O)OCC(=O)Nc2ccc(S(N)(=O)=O)cc2)n1,-15.7%
CCc1cccc(C)c1NC(=O)C1CC=CCC1C(=O)O (centres undefined),4.8%
O=C(C1CCN(S(=O)(=O)c2ccc(Br)s2)CC1)N1CCN(c2ccccc2)CC1,6.3%&-5.7%
CCn1c(/C(C#N)=N/O)nc2ccccc21,-10.1%
CC(O)CCC(=O)NNC(=S)Nc1ccccc1 (centres undefined),2.5%
O=C(O)c1cccc(S(=O)(=O)Nc2ccc(S(=O)(=O)N3CCOCC3)cc2)c1,-7.3%
CCCCn1c(=NC(C)=O)c(C#N)cc2c(=O)n3cccc(C)c3nc21,25.9%
CCc1cccc(NC(=O)CCS(=O)(=O)c2cccc3nonc23)c1,14.2%
O=C(Nc1ccc(O)cc1)c1ccc2c(c1)C(=O)N(N1C(=O)c3ccccc3C1=O)C2=O,-18.6%
NC(=O)NC(Cc1ccccc1)C(=O)NCCCSc1ccccc1 (centres undefined),-0.7%
CCOc1ccc(Cn2c(=O)oc3ccc(C)cc32)cc1OC,-3.5%
COC(=O)[C@]1(Cc2ccccc2)N[C@H](CN(C)C(=O)Nc2ccc(C(F)(F)F)cc2)[C@@H]2C(=O)N(C)C(=O)[C@@H]21,-4.5%
COc1ccc(Cl)cc1NC(=S)NC(=O)c1ccco1,-1.2%
O=C1CN(C(=O)COc2ccc(Cl)cc2Cl)C(c2ccccc2)c2cc(F)ccc2N1 (centres undefined),-12.6%
c1ccc(Cn2ncc3c(NCc4ccco4)ncnc32)cc1,-5.1%
O=C(CN(Cc1ccccc1F)S(=O)(=O)c1ccc(Cl)cc1)NCCCO,16.1%
O=C(C1CCCN(Cc2ccncc2)C1)N1CCc2ccccc2C1 (centres undefined),11.3%
SMILES,VDR inh
OCCn1c(SCCOc2ccccc2)nc2ccccc21,-7.0%
CCOC(=O)c1c(C)[nH]c(C)c1C(=O)COC(=O)/C=C/c1ccc(OC(F)F)cc1,2.3%
c1nc(NCCN2CCOCC2)c2sc3nc(N4CCOCC4)c4c(c3c2n1)CCC4,-17.1%
NS(=O)(=O)c1ccc(NC(=S)NC2CCCCCC2)cc1,-12.0%
CCOCCCNC(C(=O)Nc1ccc(OC)c(Cl)c1)c1ccccc1 (centres undefined),-2.2%
S=C(NCCc1ccc(Cl)cc1)NCc1ccco1,-5.4%
CN(/N=C/c1cc(Cl)ccc1O)C1=NS(=O)(=O)c2ccccc21,5.5%
COc1ccc(CCNc2ncnc3c2c(-c2ccccc2)cn3-c2cccc(Cl)c2)cc1OC,2.1%
COc1ccc(-c2cc3n(n2)CCc2nc4ccccc4n2-3)cc1,4.9%
O=C(c1cc2ccccc2o1)N1CC=C(c2ccccc2)CC1,-5.1%
O=C(CN1CCCC1)Nc1ccc(Oc2ccc(NC(=O)CN3CCCC3)cc2)cc1,17.0%
O=C(c1cc(F)c(F)cc1Cl)N1CCN(CCc2ccccc2)CC1,10.3%
COc1cc(NC(=O)C2CCN(S(=O)(=O)c3ccc(N4CCCC4=O)cc3)CC2)cc(OC)c1,-25.4%
CC(C)c1ccccc1NC(=O)C1CCCN(C(=O)c2ccc(Cl)cc2)C1 (centres undefined),4.8%
O=C(Nc1ccccc1Cl)NC1(C(=O)NCC2CCCO2)CCCCC1 (centres undefined),-6.3%
CC(C)C(=O)Nc1csc(C(F)(F)F)c1-c1ccccc1,4.0%
COc1cccc(CC(=O)Nc2cccc3ccccc23)c1,10.2%
CCN(CC)CCNC(=O)c1c(O)c2cc(OC)c(OC)cc2[nH]c1=O,3.8%
CCOc1ccc(-n2nc(C(=O)NCCOC)c3ccccc3c2=O)cc1,5.8%
CC(Oc1ccc2c3c(c(=O)oc2c1)CCCC3)C(=O)NCCCn1ccnc1 (centres undefined),3.5%
CCOC(=O)C(CC)(CC)/C(C)=N/NC(=O)CC#N,2.8%
CCOC(=O)c1[nH]c(C)c(CCC(=O)Nc2c(C)cc(C)cc2C)c1C,2.0%
CCOC(=O)CCCc1ccc(/C(C)=N/NC(=S)NC)cc1,-7.2%
